EPAC1 ag val = validation of human EPAC1 agonists; O95398; EPAC1 Rap1b BODIPY-GDP exchange, fluorescence; Potency, µM, for the others: max response, positive = active, usual class: activators; actives 1% (n = 16,000); AID 1645883; active = well fitted activation curve with a large enough effect; inconclusive = small, poorly fitted or top-dose-only effect; inactive = no such curve, though single readings can be large or run the other way;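 note: nearly all actives have a fitted effect of over 70% in size; series mostly up to about 76 or 150 µM; scaled to a cAMP control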
Target sequence (O95398 whole entry, looked up): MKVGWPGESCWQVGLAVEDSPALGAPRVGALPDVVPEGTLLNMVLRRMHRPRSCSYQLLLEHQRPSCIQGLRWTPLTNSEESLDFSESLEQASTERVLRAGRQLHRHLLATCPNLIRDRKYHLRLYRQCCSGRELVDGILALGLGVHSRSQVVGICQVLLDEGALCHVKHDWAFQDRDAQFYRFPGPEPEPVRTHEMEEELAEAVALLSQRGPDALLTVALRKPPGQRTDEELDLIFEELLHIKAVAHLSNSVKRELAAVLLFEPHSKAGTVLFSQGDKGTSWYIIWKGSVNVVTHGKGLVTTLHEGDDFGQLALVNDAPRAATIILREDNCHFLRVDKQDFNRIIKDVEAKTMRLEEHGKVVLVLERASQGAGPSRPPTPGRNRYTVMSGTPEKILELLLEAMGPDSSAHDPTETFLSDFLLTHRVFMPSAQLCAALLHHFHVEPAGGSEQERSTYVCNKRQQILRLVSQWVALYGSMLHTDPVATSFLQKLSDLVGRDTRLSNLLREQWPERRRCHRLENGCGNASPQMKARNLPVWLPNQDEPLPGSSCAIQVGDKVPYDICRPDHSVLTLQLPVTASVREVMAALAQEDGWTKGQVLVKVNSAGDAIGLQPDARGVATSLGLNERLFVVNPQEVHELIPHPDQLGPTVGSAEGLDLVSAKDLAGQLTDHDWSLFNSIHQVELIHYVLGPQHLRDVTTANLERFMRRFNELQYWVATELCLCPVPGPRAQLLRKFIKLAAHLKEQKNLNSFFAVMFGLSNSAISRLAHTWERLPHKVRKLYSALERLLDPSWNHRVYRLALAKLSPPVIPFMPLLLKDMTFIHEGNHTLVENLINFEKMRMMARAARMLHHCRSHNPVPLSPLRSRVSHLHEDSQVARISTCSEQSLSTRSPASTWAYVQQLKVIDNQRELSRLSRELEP
An asterisk follows results filed as active; ? = inconclusive; & = joins results of further samples; [ ] = dose if it differs, or a comment. % is set by controls: 0 for no effect and ±100 for the full control effect; potency is the fitted concentration of half-maximal effect. The list is partial; rates above refer to the full screens.

Preview:
SMILES | EPAC1 ag val
COCCOC(=O)C1=C(C)NC(C)=C(C(=O)OC/C=C/c2ccccc2)C1c1cccc([N+](=O)[O-])c1 (stereo not drawn) | ?
CCCCC[C@H]1CN(CCCC)C(=O)[C@@H]1CC(=O)NCc1ccc(OC)cc1 | -87.8%[inhibitor]
Cc1ccccc1-c1cc(-n2ccnc2)ncn1 | 3.4%
CC(=O)O[C@H]1C(=O)[C@@]2(C)C([C@H](OC(=O)c3ccccc3)[C@]3(O)C[C@H](OC(=O)[C@H](O)[C@@H](NC(=O)c4ccccc4)c4ccccc4)C(C)=C1C3(C)C)[C@]1(OC(C)=O)CO[C@@H]1C[C@@H]2O (stereo partly drawn) | 12.8%&-2.6%

The listing (from the top)
SMILES | EPAC1 ag val
COCCOC(=O)C1=C(C)NC(C)=C(C(=O)OC/C=C/c2ccccc2)C1c1cccc([N+](=O)[O-])c1 (stereo not drawn) | ?
CCCCC[C@H]1CN(CCCC)C(=O)[C@@H]1CC(=O)NCc1ccc(OC)cc1 | -87.8%[inhibitor]
Cc1ccccc1-c1cc(-n2ccnc2)ncn1 | 3.4%
CC(=O)O[C@H]1C(=O)[C@@]2(C)C([C@H](OC(=O)c3ccccc3)[C@]3(O)C[C@H](OC(=O)[C@H](O)[C@@H](NC(=O)c4ccccc4)c4ccccc4)C(C)=C1C3(C)C)[C@]1(OC(C)=O)CO[C@@H]1C[C@@H]2O (stereo partly drawn) | 12.8%&-2.6%
Cc1ncc2c(c1CNS(=O)(=O)N(C)C)CCN(C(=O)c1ccc(-c3ccc(F)cc3)cc1)C2 | -1.3%
O=C(c1ccncc1)N1CCC[C@@]2(CCN(c3cccc(-c4ccccc4)c3)C2)C1 | -10.8%
C[N+]1(C)CCCC(OC(=O)C(O)(c2ccccc2)c2ccccc2)C1 (stereo not drawn) | -4.7%&-14.8%
O=c1c(CCc2ccccc2)nc2cnc(N3CCNCC3)nc2n1C1CC1 | ?
Cc1cnc(SCc2ccccn2)nc1C1CCCN(Cc2ccsc2)C1 (stereo not drawn) | 11.5%
COc1cc(CN2CCCC(n3cc(C(=O)N4CCCCC4)nn3)C2)cc(OC)c1OC (stereo not drawn) | -1.1%
COc1ccc2[nH]cc(CCNc3ccnc(-c4ccccc4Cl)n3)c2c1 | ?
COc1cccc(Cn2c(=O)c(-c3cccs3)nc3cnc(N4CCOCC4)nc32)c1 | 28.0%
O=[N+]([O-])c1nccn1CO[C@@H](CO)[C@H](O)CO | 14.6%
CCCSc1ccc2nc(NC(=O)OC)[nH]c2c1 | -3.7%&-6.6%
C[C@@H]1C(=O)O[C@H]2[C@@H](O)[C@@]34[C@H]5CC(C(C)(C)C)[C@]36[C@@H](OC(=O)[C@@H]6O)O[C@@]4(C(=O)O5)[C@@]12O (stereo partly drawn) | 2.6%
CC(C)(Oc1ccc(C2CCCc3ccccc32)cc1)C(=O)O (stereo not drawn) | -0.9%
CCCCC/C=C\C\C=C/C=C/C=C/[C@@H](SC[C@H](N)C(=O)NCC(=O)O)[C@@H](O)CCCC(=O)O | -19.1%
Cc1cc(N)c2ccccc2[n+]1CCCCCCCCCC[n+]1c(C)cc(N)c2ccccc21 | 1.5%&12.1%&0.5%&6.8%
CC/C(=C(/CC)c1ccc(OP(=O)(O)O)cc1)c1ccc(OP(=O)(O)O)cc1 | -3.4%
CC[N+](CC)(CC)CCOc1ccc(/C=C/c2ccccc2)cc1 | -12.8%&-15.7%
Cn1cc(-c2nc3cnc(OCc4ccccc4)nc3n(CCC#N)c2=O)c2ccccc21 | ?
CN(C)C(=O)c1ccc(-c2nc(-n3ccnc3)c3ccccc3n2)cc1 | -2.5%
c1ccc2cc(C3=NCCN3)ccc2c1 | 8.6%
COc1ccc(-c2cc(=O)c3c(O)c(OC)c(O[C@@H]4OC(COC5OC(C)C(O)C(O)[C@@H]5O)C(O)C(O)C4O)cc3o2)cc1 (stereo partly drawn) | -19.5%
O=c1ccn([C@@H]2O[C@H](COP(=O)(O)OP(=O)(O)O)[C@@H](O)[C@H]2O)c(=O)[nH]1 | 5.2%&-8.8%

The list goes on:
SMILES | EPAC1 ag val
CCCCCCCCCCCCCCCC(=O)OCC(COC(=O)CCCCCCCCCCCCCCC)OC(=O)CCCCCCCCCCCCCCC | -2.0%
CCn1c(-c2ccccc2F)nc2cc(NC(C)=O)cc(C(=O)N3CCCCC3c3nccn3C)c21 (stereo not drawn) | 5.9%
c1ccc2c(-n3ccnc3)nc(-c3ccoc3)nc2c1 | ?
CC(=O)OCC(=O)[C@@]1(O)CC[C@H]2[C@@H]3CCC4=CC(=O)C=C[C@]4(C)[C@H]3[C@@H](O)C[C@@]21C | -36.4%[inhibitor]
Cn1c(=O)c2[nH]c(-c3ccc(S(=O)(=O)O)cc3)nc2n(C)c1=O | -6.5%&-12.2%
CN1CCCc2cc(/C=C/c3ccnc4ccccc34)ccc21 | ?
CC(C)C[C@@H](CN=[N+]=[N-])N1CCN(C)CCC1=O | ?
Cc1nc2sccn2c(=O)c1CCN1CCC(=C(c2ccc(F)cc2)c2ccc(F)cc2)CC1 | ?
CCC1CN(CCNC(=O)c2ccnc(Cl)c2)Cc2cc(OC)ccc2O1 (stereo not drawn) | -9.4%
COc1cccc(Nc2ncc3nc(-c4ccc(Cl)cc4)c(=O)n(C4CC4)c3n2)c1 | 15.6%
C=CC(N)CCC(=O)O (stereo not drawn) | 0.1%&-13.0%&2.4%
N[C@H](C(=O)O)c1nn[nH]n1 | -0.5%
CCCCC/C=C\CCC(=O)N[C@H]1[C@H](Oc2c3cc4cc2Oc2ccc(cc2Cl)[C@@H](O[C@@H]2O[C@H](CO)[C@@H](O)[C@H](O)[C@H]2NC(C)=O)[C@@H]2NC(=O)[C@H](NC(=O)[C@@H]4NC(=O)[C@H]4NC(=O)[C@@H](Cc5ccc(c(Cl)c5)O3)NC(=O)[C@H](N)c3ccc(O)c(c3)Oc3cc(O)cc4c3)c3ccc(O)c(c3)-c3c(O[C@H]4O[C@H](CO)[C@@H](O)[C@H](O)[C@@H]4O)cc(O)cc3[C@@H](C(=O)O)NC2=O)O[C@H](CO)[C@@H](O)[C@@H]1O | -122.2%[inhibitor]
COc1cc(CN2CCCC(c3nc(-c4ccncc4)ncc3-c3ccccc3)C2)ccc1O (stereo not drawn) | -4.2%
CCOc1ccc(N=C(C)Nc2ccc(OCC)cc2)cc1 | ?
CC(Cc1ccc(O)c(O)c1)C(C)Cc1ccc(O)c(O)c1 (stereo not drawn) | 14.7%
Cc1cc(O)cc(O)c1C(=O)O | ?
CCNc1ncc2nc(-c3cc(F)cc(F)c3)c(=O)n(C[C@H]3CCCO3)c2n1 | -37.1%[inhibitor]
COc1ccc(CCNC(=O)C(=O)c2c[nH]c3ccccc23)cc1 | -16.5%
O=C(Nc1cccc(F)c1)N1CCCC2(CCN(C(=O)c3csnn3)CC2)C1 | 10.7%
Cc1cccc(CNc2ccnc(-c3ccccc3CN(C)C)n2)c1 | -7.5%
O=[N+]([O-])c1ccc(Cn2cc(-c3cccc(C(F)(F)F)c3)nn2)cc1 | 5.4%
O=C(NCC1CCCCN1)c1cc(OCC(F)(F)F)ccc1OCC(F)(F)F (stereo not drawn) | -12.2%&-35.8%
Cc1nc2cnc(N3CCOCC3)nc2n(Cc2ccc(F)cc2)c1=O | 10.5%
CCN1CCCC1CNC(=O)c1cnn(-c2nccc(-c3ccc(C)o3)n2)c1C1CC1 (stereo not drawn) | -11.0%

Following part.
SMILES | EPAC1 ag val
C[C@H]1C[C@H]2[C@@H]3CCC4=CC(=O)C=C[C@]4(C)[C@@H]3C(=O)C[C@]2(C)[C@@]1(O)C(=O)CO | 0.4%
COc1ccc(Oc2ncc3ncc(=O)n(C4CC4)c3n2)cc1 | -1.9%
CN(C)CC(C)(C)CNC(=O)c1cnn(-c2nccc(-c3ccc4c(c3)OCO4)n2)c1-c1ccco1 | -6.7%
O=S1(=O)CCOC[C@H](Cc2ccccc2)N1Cc1ccccc1Br | 21.5%
Cc1ccc(S[C@@H](CCN2CC[C@H](O)CCC2=O)c2ccccc2)cc1 | 16.7%
CC(=O)NC[C@H]1CN(c2ccc(N3CCOCC3)c(F)c2)C(=O)O1 | -54.4%[inhibitor]
O=C(O)c1cc(NCc2cc(O)ccc2O)ccc1O | -13.0%
O=C(c1cnccn1)N1CCC2(CCCN(Cc3ccccc3)C2)CC1 | -21.3%
COCC(=O)Nc1cc(C(=O)N2CCN(c3ccccc3)C(=O)C2)cc2nc(-c3ccccc3)n(C)c12 | -17.9%
COc1cccc(Cn2c(=O)c(C)nc3cnc(OC)nc32)c1 | -20.3%
CS(=O)(=O)N1CCC2(CCN(C(c3ccccc3)c3ccccc3)CC2)CC1 | -66.5%[inhibitor]
COc1ccc2cc1Oc1ccc(cc1)CC1c3cc(c(OC)cc3CCN1C)Oc1c(OC)c(OC)cc3c1C(C2)N(C)CC3 (stereo not drawn) | 25.9%
COc1c(CC(=O)c2cc3c(cc2O)OC(C)(C)C(O)C3)ccc2c1C=CC(C)(C)O2 (stereo not drawn) | ?
CN(C)c1nc2cc3c(cc2cc1CN(CC1CCCO1)C(=O)/C=C/c1cccs1)OCO3 (stereo not drawn) | -12.1%
O=S1(=O)CCOCCCN1Cc1cccc(Cl)c1 | -7.9%
Cc1noc(C)c1C(=O)N1CCC[C@@]2(CCN(C(=O)Nc3cccc(C#N)c3)C2)C1 | -55.8%[inhibitor]
CCCN1CCC(=O)N([C@H](COc2ccccc2)c2ccccc2)CC1 | -36.3%[inhibitor]
COc1cccc(-c2cncnc2NCc2ccc(OC)cc2OC)c1 | 8.1%
COc1cccc(Cn2c(=O)cnc3cnc(N4CCN(C)CC4)nc32)c1 | 28.9%
CC[C@H]1NC(=O)[C@@H](NC(=O)c2ncccc2O)[C@@H](C)OC(=O)[C@H](c2ccccc2)NC(=O)[C@@H]2CC(=O)CCN2C(=O)[C@H](Cc2ccccc2)N(C)C(=O)[C@@H]2CCCN2C1=O | -8.7%
CC(C)=CC1C(C(=O)O)C1(C)C (stereo not drawn) | -49.3%[inhibitor]
CN(C)C(=O)c1ccc(-c2cncnc2Nc2ccccc2)cc1 | 6.7%
CNC[C@H](O)c1cccc(O)c1 | 2.2%&15.5%
Cc1cc(C(=O)NCc2nc(-c3cccc(NC(=O)c4ccccc4)c3)oc2C)nc(C)n1 | -14.8%
O=C1CCCCN1CCC(=O)N1CCOc2ccc(C(O)C3CCCCC3)cc2C1 (stereo not drawn) | -27.1%

(next part)
SMILES | EPAC1 ag val
COCCNc1ccnc(-c2cccc(NS(C)(=O)=O)c2)n1 | -9.7%
CC(=O)SC1CC2=CC(=O)CC[C@@]2(C)C2CC[C@@]3(C)[C@@H](CC[C@@]34CCC(=O)O4)C12 (stereo partly drawn) | -4.0%
CCC1(c2ccccc2)C(=O)NCNC1=O | -4.0%&-11.6%&-12.0%&-6.4%
CC(=O)c1ccc(C(=O)N2CCCC(c3nc(SCc4ccccn4)ncc3C)C2)cc1 (stereo not drawn) | -3.9%
CN1CCN(c2ncc3ncc(=O)n(CCC#N)c3n2)CC1 | -7.4%
COc1ccc(CNc2cc(-c3cccnc3)ncn2)c(OC)c1 | -35.1%[inhibitor]
CC(NC(=O)C1CC1)c1nnc2n1CCN(Cc1cccc(F)c1F)CC2 (stereo not drawn) | 13.8%
COc1ccc(OC)c(-c2cc(Cl)c3c(c2)CC(CNC(=O)c2cnn4cccnc24)O3)c1 (stereo not drawn) | 4.3%
CC[C@@H]1C(=O)[C@H](Cc2ccccc2)[C@H]2CCCC(=O)N3CC[C@@H]1[C@@H]23 | -6.1%
Cc1nc2sccn2c(=O)c1CCN1CCC(=C(c2ccccc2)c2ccc(F)cc2)CC1 | -6.0%&20.8%
Cc1ccc2[nH]nc(C(=O)N3CCOc4ccc(CN5CCc6sccc6C5)cc4C3)c2c1 | -7.4%
O=c1c(-c2ccc(F)c(F)c2)nc2cncnc2n1Cc1ccc(F)cc1 | -101.8%[inhibitor]
O=C(c1csnn1)N1CCC2(CCN(Cc3nccs3)CC2)CC1 | -44.7%[inhibitor]
O=C(Nc1ccc(Cl)c(C(F)(F)F)c1)[C@@H]1CC=C[C@@H]2CCN(Cc3ccccc3)C(=O)[C@@H]21 | ?
c1ccc(CNc2ncnc3ccc(-c4cccnc4)cc23)cc1 | -1.4%
CS(=O)(=O)Nc1cccc(-c2nc(Nc3ccncc3)c3ccccc3n2)c1 | ?
O=C(O[C@H]1[C@H](Cc2ccccc2)NS(=O)(=O)[C@H]2C[C@@H]3C=C[C@]12O3)c1ccc([N+](=O)[O-])cc1 | 15.4%
COC(=O)C1CCCCN1Cc1ccc2c(c1)CN(C(=O)c1ccc(F)cc1)CCO2 (stereo not drawn) | 0.2%
O=C1OCCN1/N=C/c1ccc([N+](=O)[O-])o1 | -5.6%&9.7%
COc1ccc(-c2nc3cnc(N4CCOCC4)nc3n(Cc3cccs3)c2=O)cc1 | 24.4%
CCc1nc2cc(C(=O)N(C)C3CCOC3)cc(NC(=O)c3ccccc3OC)c2n1C (stereo not drawn) | 0.4%
COc1ccc(-c2nc3cnc(Oc4ccccc4)nc3n(C3CC3)c2=O)cc1 | -52.7%[inhibitor]
C/C=C/c1ccc(OC)cc1 | -0.7%&6.5%
CN1CC(=O)N/C1=N/C(=O)Nc1cccc(Cl)c1 | -5.7%&10.4%
CC1(C)O[C@@H]2C[C@H]3[C@@H]4CCC5=CC(=O)CC[C@]5(C)[C@@]4(F)[C@@H](O)C[C@]3(C)[C@]2(C(=O)CCl)O1 | -17.1%

(listing goes on)
SMILES | EPAC1 ag val
Fc1ccc([C@H]2CCNCC2COc2ccc3c(c2)OCO3)cc1 (stereo partly drawn) | -88.9%[inhibitor]
CCCCC/C=C\C/C=C\CCCCCCCCCC(=O)O | -5.3%
O=C1[C@H](Cc2ccccc2)NCCCC[C@H](c2ccc(Cl)cc2)N1Cc1ccccc1 | ?
O=C(NCCc1ccccn1)C1CC12CCN(C(=O)c1c(F)cccc1Cl)CC2 (stereo not drawn) | 1.0%
C[C@@H]1CN(Cc2ccc3c(c2)CN(Cc2cccn2-c2cccnc2)CCO3)C[C@H](C)O1 | 6.9%

Bioassay records: PubChem, National Center for Advancing Translational Sciences (NCATS)
